# Marburg entry: inhibitors of Marburg virus binding or entry into cells. Marburg virus pseudotype entry/binding inhibition, cell-based; control for the full effect not named in the record; many of its hits are not listed in these tables. Potency, µM (top dose mostly 49.2 µM), inactives show top-dose activity change, negative = inhibition, actives largely listed as inhibitors. actives 6.5% (n = 18,000). AID 720532; active means well fitted inhibition curve with a large enough effect; inconclusive means small, poorly fitted or top-dose-only effect; inactive means no such curve, though single readings can be large or run the other way; tested in HEK293 cells; also: luciferase read-out
# LASV entry inh: inhibitors of Lassa virus binding or entry into cells. AID 720533. Lassa virus pseudotyped entry inhibition, cell-based qHTS; control for the full effect not named in the record; many of its hits are not listed in these tables. actives 4.1% (n = 18,000). Potency, µM (titrated, usually from 49.2 µM), inactives show at the highest dose activity change, negative = inhibition, actives largely listed as inhibitors; active = well fitted inhibition curve with a large enough effect; inconclusive = small, poorly fitted or top-dose-only effect; inactive = no such curve, though single readings can be large or run the other way; tested in HEK293 cells; also: luciferase read-out
# Numbers without * were called inactive; ? = inconclusive; nt = not tested or not shown; & = joins results of further samples; [ ] = remark or other dose. % is scaled to controls: 0 for no effect and ±100 for the full control effect; potency is read from the fitted curve at half-maximal effect. Some of the compounds tested; count on the stated rates, not on these rows.
Compound	Marburg entry	LASV entry inh
NC[C@H](O)c1ccc(O)cc1	-8%[17.8 µM]	-6%[17.8 µM]
COc1cccc(OC)c1CN1CCC2(CCC(CNC(=O)c3ccn(C)n3)O2)CC1 (stereo unspecified)	-16%	-5%
O=C1OCCN1C(=O)[C@H]1[C@H](c2ccccc2)C(c2cccc(Cl)c2)=NN1c1ccc(Br)cc1	-16%	-16%
CCCCN1C[C@H](Cc2ccccc2)[C@@H](CC(=O)Nc2ccc(OC)cc2)C1=O	-2%	5%
CCCCC/C=C\C/C=C\C/C=C\C/C=C\CCCC(=O)O[C@H](COCCCCCCCCCCCCCCCC)COP(=O)([O-])OCC[N+](C)(C)C	33%&19%	3%&8%
CCCCCCCCCC(=O)O[C@H](CC(=O)O)C[N+](C)(C)C	0%	-2%
COC1=C[C@H](C(=O)N2CCCC2)[C@H](C)[C@@H](c2ccccc2)CC1=O	2%[8.59 µM]	-11%[8.59 µM]
COC(=O)/C(=C1/OC(=O)C(c2ccccc2)=C1O)c1ccccc1	24%	6%
CCCCC1=CC2=C(OC(C)=O)C(=O)C(C)(OC(=O)c3ccc(Cl)nc3)C(=O)C2=CO1 (stereo unspecified)	-12%	-14%
COC(=O)[C@H](Cc1ccccc1)N1CC=CS1(=O)=O	13%	31%[activator]
COc1ccc(COC(=O)NN=C2C[C@@H](O)[C@@H](O)[C@@H]3[C@H]4C(=O)N(C[C@@H]5CCCO5)C(=O)[C@@H]4CC[C@@H]23)cc1	6%[8.59 µM]	?
CCC(C)CN1C(=O)NC(CCc2ccccc2)C(C(C)=O)=C1C (stereo unspecified)	?	-10%[8.59 µM]
CCOC(=O)Cc1ccc(-c2ccccc2)cc1	0%	3%
Cc1cnc(-n2ncc(C(=O)NCc3ccncc3)c2-c2cccs2)nc1-c1ccc(F)cc1	7%	-4%
CCOC(C)OCC	16%	-16%
CCOC(=O)CN1C(=O)NC(c2ccc(Br)cc2)C(C(=O)OC)=C1C (stereo unspecified)	-10%[8.59 µM]	-4%[8.59 µM]
CC(C)C(=O)Nc1cccc(COc2ccc(CN(CCc3ccccc3)C(=O)OC(C)(C)C)cc2)c1	?	?
CN1C[C@H](CNC(=O)OCc2ccccc2)C[C@H]2c3cccc4c3c(cn4C)C[C@@H]21	10µM*	?
Cc1cc(=O)c(C(=O)N(C)CCc2ccccn2)c2n1-c1ccccc1SC(c1ccsc1)C2 (stereo unspecified)	-2%	-8%
COC1=CC(=O)O[C@H](/C=C/c2ccc3c(c2)OCO3)C1	?	?
CC1(C)CN(CCc2ccccc2)C(=O)[C@@H]1CC(=O)Nc1ccc(Br)cc1	-5%	-5%
OC1(c2cccnc2)CCN(Cc2ccc3c(c2)CN(Cc2cc4ccccc4s2)CCO3)CC1	?	?
NC(=O)[C@@H]1CCCN1C(=O)C(Cc1cnc[nH]1)NC(=O)C1CCC(=O)N1 (stereo partly specified)	14%	14%
CC/C=C\C/C=C\C/C=C\C/C=C\C/C=C\C/C=C\CCC(=O)NCCc1ccc(O)c(O)c1	11%	2%
COc1ccc2c(c1)C(=O)[C@H](OC(=O)NS(=O)(=O)c1ccc(F)cc1)[C@@H](c1ccc(OC)c(Br)c1)O2	-6%	-16%
Cc1c(C(=O)NCCN2CCOCC2)cnn1-c1nccc(-c2cc3ccccc3o2)n1	0%	-18%
CCCS(=O)(=O)NCc1c(C)ncc2c1CCN(C(=O)c1cccc(Cl)c1F)C2	1%	-7%
COc1ccccc1CCc1nc2ccccc2n1C1CCN(C(=O)c2cn3ccsc3n2)CC1	6%	-2%
COC(=O)c1c(OCC2CCCN(C)C2)cc(=O)n2c1CCN(Cc1ccc(OC)c(O)c1)CC2 (stereo unspecified)	?	-18%
COc1cc(O)c(C(=O)O)c(O)c1	3%	-13%
CC(=O)OC/C=C(\C)CC/C=C(\C)CC/C=C(\C)CC/C=C(\C)CC/C=C(\C)CC/C=C(\C)CC/C=C(\C)CC/C=C(\C)CCC=C(C)C	1%	-5%
O=C(C1CCCCC1)N1CCOc2ccc(CN3CCN(Cc4ccccn4)CC3)cc2C1	4%	-6%
CC(=O)N1CC2CC(C1)c1cccc(=O)n1C2 (stereo unspecified)	11%	-5%
NC1=NC2C(N=C(Br)N2[C@@H]2O[C@H]3COP(=O)(O)O[C@@H]3[C@@H]2O)C(=O)N1 (stereo partly specified)	12%&9%	-6%&5%
C/C=C(\C)C(=O)C[Si](C)(C)c1ccccc1	-4%	-8%
Cc1ccc(F)cc1-c1ccc(C(=O)N=C(N)N)o1	4%	31%[activator]
COc1cc2ccc(=O)oc2cc1O	-3%	-3%
OCC(O)COc1cccc2ccccc12 (stereo unspecified)	1%	0%
CCC1C(=O)NCCN1Cc1ccc2c(c1)CN(Cc1ccc(OC)cc1OC)CCO2 (stereo unspecified)	-26%	-2%
COC(=O)[C@@]1(C=C2c3ccc(OC)cc3[C@@H](OC)[C@@H]2C)[C@@H]2C=CC[C@@H]21	-11%[8.59 µM]	-26%[8.59 µM]
COc1cc2c(c(OC)c1OC)-c1ccc(O)c(=O)cc1C(NC(C)=O)CC2 (stereo unspecified)	?	-10%
Cc1ccc(CN2CC(N3CCC(c4ccccc4)CC3)CS2(=O)=O)cc1 (stereo unspecified)	16%	-21%
CC[C@H](C)[C@H](NC(=O)[C@H](CO)NC(=O)[C@H](CC(C)C)NC(=O)[C@H](CO)NC(=O)[C@@H]1CCCN1C(=O)[C@H](CC(N)=O)NC(=O)[C@@H](N)CC(=O)O)C(=O)N[C@@H](CC(=O)O)C(=O)N[C@@H](CC(C)C)C(=O)N[C@H](C(=O)N[C@@H](Cc1ccccc1)C(=O)N[C@@H](Cc1cnc[nH]1)C(=O)N[C@@H](CC(C)C)C(=O)N[C@@H](CC(C)C)C(=O)N[C@@H](CCCNC(=N)N)C(=O)N[C@H](C(=O)N[C@@H](CC(C)C)C(=O)N[C@@H](CC(C)C)C(=O)N[C@@H](CCC(=O)O)C(=O)N[C@@H](CC(C)C)C(=O)N[C@@H](C)C(=O)N[C@@H](CCCNC(=N)N)C(=O)N[C@H](C(=O)N[C@@H](CCC(N)=O)C(=O)N[C@@H](CO)C(=O)N[C@@H](CCC(N)=O)C(=O)N[C@@H](CCCNC(=N)N)C(=O)N[C@@H](CCC(=O)O)C(=O)N[C@@H](CCCNC(=N)N)C(=O)N[C@@H](C)C(=O)N[C@@H](CCC(=O)O)C(=O)N[C@@H](CCC(N)=O)C(=O)N[C@@H](CC(N)=O)C(=O)N[C@@H](CCCNC(=N)N)C(=O)N[C@H](C(=O)N[C@H](C(=O)N[C@@H](Cc1ccccc1)C(=O)N[C@@H](CC(=O)O)C(=O)N[C@@H](CO)C(=O)N[C@H](C(N)=O)C(C)C)[C@@H](C)CC)[C@@H](C)CC)[C@@H](C)O)[C@@H](C)O)[C@@H](C)O	-1%	1%
CC(=O)OCC(=O)[C@@]1(O)CC[C@H]2[C@@H]3CCC4=CC(=O)CC[C@]4(C)C3=CC[C@@]21C	2%	-10%
CC(N)=NCCC[C@H](N)C(=O)O	4%	-8%
O=c1[nH]c(=O)c2ccccc2o1	8%	7%
C=C1CC[C@H](O)CC1=C/C=C1\CCC[C@]2(C)[C@@H]([C@H](C)CCCC(C)(C)O)CC[C@@H]12	12%	13µM*
COc1ccc(C(=O)Nc2ccc3[nH]c(-c4cccc(OC)c4)cc(=O)c3c2)cc1	?	-25%
C=CCN1CC(COc2ccc(OC)cc2)OCCS1(=O)=O (stereo unspecified)	14%	?
C#CCOC(=O)C1=CCCN(C)C1	?	0%&-22%

# Additional records:
Compound	Marburg entry	LASV entry inh
CCCCC[C@H](O)/C=C/[C@H]1[C@H](O)CC(=O)[C@@H]1CCCCCCC(=O)O	2%	6%
CC(C)CON=C1C[C@@H](O)[C@@H](O)[C@@H]2[C@H]3C(=O)N(C[C@@H]4CCCO4)C(=O)[C@@H]3CC[C@@H]12	10%[8.59 µM]	-10%[8.59 µM]
CN(CCO)C(=O)c1cn(C2CCN(Cc3c(F)cccc3Cl)CC2)nn1	80%[activator]	-12%
O=C(NCCCc1ccccc1)c1cccc(NC(=O)c2ccccc2)c1	?	-19%
Cn1c2c(c(=O)c3ccccc31)C[C@@H](O)C(C)(C)O2	3%	6%
Cc1noc(C)c1-c1cc(Nc2ccc(F)cc2)ncn1	3%	1%
CN1CCCCCC1C(=O)NCCN1Cc2ccccc2OC(c2ccsc2)C1 (stereo unspecified)	-17%	5%
Cc1ccc(-c2ncc(Cl)cc2-c2ccc(S(C)(=O)=O)cc2)cn1	7%	-9%
CNC(=O)c1cncc(C=Cc2ccccc2Cl)c1	15%	61%[activator]
CCCCC1=CC2=C(c3ccco3)C(=O)C(C)(OC(=O)c3ccc(OC)cc3)C(=O)C2=CN1CCCN(CC)CC (stereo unspecified)	?	-16%[8.59 µM]
C=C(C(C)=O)C(O)c1cccs1 (stereo unspecified)	-2%	-9%
CS(=O)(=O)Nc1ccc(F)cc1	17%	11%
COc1ccc(-c2coc3cc(O)ccc3c2=O)cc1	22%&62%	7%&8%
CC(C)c1c(C(=O)NCC2(N3CCOCC3)CCCC2)cnn1-c1nccc(-c2cccs2)n1	12%	-1%
O=C1NCCN1c1ncc([N+](=O)[O-])s1	14%[17.8 µM]	-6%[17.8 µM]
C=C1c2cccc(C(F)(F)F)c2O[C@H](C(=O)OCC)[C@@H]1CCC(C)C	-12%	4%
O=S1(=O)c2cc(Cl)ccc2Oc2ccccc2CN1Cc1cccc(F)c1	?	-13%
Cc1ccc(-c2ccc(CN3C(CC(C)C)C(=O)N(Cc4cn(CC5CCCCC5)nn4)CCS3(=O)=O)cc2)cc1 (stereo unspecified)	?	?
CCCNC(=O)[C@H]1O[C@@H]1C(=O)N[C@H](C(=O)N1CCC[C@H]1C(=O)OC)[C@@H](C)CC	2.5µM*	10µM*
C=C1CC[C@@H]2[C@](C)(CO)[C@H](O)CC[C@@]2(C)[C@@H]1C/C=C1/C(=O)OC[C@H]1O	?	-25%
NC(=O)C(=O)N/N=C/c1ccc([N+](=O)[O-])o1	2%	-13%
COC(=O)CC1C(C)(C)C(OC(C)=O)[C@@]2(O)C=C3C4CC(=O)OC(c5ccoc5)[C@]4(C)CCC3[C@@]1(C)C2=O (stereo partly specified)	-8%	-3%
NCCCC[C@H](NC(=O)[C@@H]1CCCN1C(=O)[C@@H]1CSSC[C@H](NC(=O)CNC(=O)CNC(=O)CN)C(=O)N[C@@H](Cc2ccc(O)cc2)C(=O)N[C@@H](Cc2ccccc2)C(=O)N[C@@H](CCC(N)=O)C(=O)N[C@@H](CC(N)=O)C(=O)N1)C(=O)NCC(N)=O	-3%	-6%
Cc1ccc(C(=O)N(Cc2cc3ccc(F)cc3nc2N2CCC(O)CC2)CC2CCCO2)cc1 (stereo unspecified)	-8%	-11%
CCOC(=O)C(Cc1ccc(O)cc1)NC(C)=O (stereo unspecified)	26%	13%
COc1cc2cc(Oc3ccc4ccc(=O)oc4c3)c(=O)oc2cc1O	-2%	-7%
O=S(=O)(Oc1ccc(Cl)cc1)c1ccccc1	13%	6%
O=C(NCc1ccncc1)c1cnn(-c2nccc(-c3cccs3)n2)c1C1CC1	-16%	-2%
Cc1ccccc1Nc1oc(-c2ccccc2)nc1C(C)(C)C	-15%[8.59 µM]	27%[8.59 µM]
Cc1ccc(S(=O)(=O)N2CCN(S(=O)(=O)c3ccccc3Br)C2=O)cc1	25%	9%
COc1cc(Br)c(CC2c3cc(OC)c(OC)cc3CCN2C)cc1OC (stereo unspecified)	-26%	2%
O=C(Nc1n[nH]c2nc(-c3ccco3)c(Br)cc12)C1CC1	?	66%
CCC[C@H]1CN(Cc2cccnc2)C(=O)[C@H]1CC(=O)Nc1ccc(Br)cc1	28%	12%
CN(C)C1C(=O)C(C(N)=O)C(=O)C2(O)C(=O)C3C(=O)c4c(O)ccc(Cl)c4C(O)C3CC12 (stereo unspecified)	10%	-7%
C[C@]12C[C@@](C)(C=C1C=Cc1ccccc1)C(=O)C[C@H]2c1ccccc1	3%[8.59 µM]	0%[8.59 µM]
O=c1cc(CN2CCN(c3ccccc3F)CC2)c2ccccc2o1	27%	14%
O=C(C[C@H]1C(=O)N(Cc2cccnc2)C[C@@H]1Cc1ccccc1)Nc1ccccc1	-15%	nt
CCC(c1ccccc1)c1noc(CCN(CC)CC)n1 (stereo unspecified)	8%	-17%
O=c1c(O)c(-c2ccc(O)cc2)oc2ccccc12	1%	-13%
c1ccc2c(c1)OCCOCCOCCOCCO2	2%	1%
CC#CCN1c2ccccc2[C@]23CCC(=O)N(Cc4ccco4)C2=NC(C(=O)OC)=C(C(=O)OC)[C@H]13	?	-20%[8.59 µM]

# Whole records as entered above.
# COC1=CC(=O)O[C@H](/C=C/c2ccc3c(c2)OCO3)C1 in the list: Marburg entry = ?; LASV entry inh = ?
# C[C@]12C[C@@](C)(C=C1C=Cc1ccccc1)C(=O)C[C@H]2c1ccccc1 in the list: Marburg entry = 3%[8.59 µM]; LASV entry inh = 0%[8.59 µM]

# Bioassay records as filed in PubChem.
